KCNQ2 block = KCNQ2 potassium channel inhibitors, primary screen, cell-based, CHO-K1, FluxOR thallium flux, B-score (AID 2156) | 310,000 compounds, 1.1% hits | Potassium voltage-gated channel subfamily KQT member 2 (Rattus norvegicus), O88943 | 20 min; active compounds read low; only compounds with negative scores are shown here; some inactives read as strong as hits | B-score at 10 µM;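 active means fluorescence ratio B-score at most minus 3 library SDs, with starting brightness B-score within 2 library SDs, cut at about -5.5 in these data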
Target sequence (O88943 whole entry, looked up): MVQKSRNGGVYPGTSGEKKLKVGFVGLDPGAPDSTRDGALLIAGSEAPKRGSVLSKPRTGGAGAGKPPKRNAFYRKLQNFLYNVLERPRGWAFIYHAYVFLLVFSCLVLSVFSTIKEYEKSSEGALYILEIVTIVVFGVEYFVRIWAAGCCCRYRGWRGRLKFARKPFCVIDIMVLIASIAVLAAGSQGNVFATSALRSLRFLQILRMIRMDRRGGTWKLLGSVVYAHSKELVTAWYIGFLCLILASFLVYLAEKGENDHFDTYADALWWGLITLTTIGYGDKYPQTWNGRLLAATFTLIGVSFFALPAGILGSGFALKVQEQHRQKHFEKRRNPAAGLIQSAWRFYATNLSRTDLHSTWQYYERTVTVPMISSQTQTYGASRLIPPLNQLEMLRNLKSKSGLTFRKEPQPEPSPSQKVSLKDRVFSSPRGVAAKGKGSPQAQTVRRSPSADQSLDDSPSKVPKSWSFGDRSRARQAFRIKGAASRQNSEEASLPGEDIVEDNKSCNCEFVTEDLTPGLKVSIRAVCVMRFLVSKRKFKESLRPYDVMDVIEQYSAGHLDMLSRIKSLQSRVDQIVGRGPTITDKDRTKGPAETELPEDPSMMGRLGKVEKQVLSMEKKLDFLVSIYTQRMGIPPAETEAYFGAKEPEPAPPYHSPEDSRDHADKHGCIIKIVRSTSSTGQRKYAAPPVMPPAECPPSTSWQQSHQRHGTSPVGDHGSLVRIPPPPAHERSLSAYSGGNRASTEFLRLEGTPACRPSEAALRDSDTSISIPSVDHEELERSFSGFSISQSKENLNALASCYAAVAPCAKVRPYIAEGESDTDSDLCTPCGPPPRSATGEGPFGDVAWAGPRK
KCNQ2 block baseline = further read-out of KCNQ2 block, marked with its call; B-score; measured here: initial fluorescence intensity artifact check;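 brightness before thallium and not channel activity; 0 = typical well and far values either way flag optical interference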
* = called active by the depositor; i = inactive. A portion of the library (hit frequency here may not be typical).

canonical_smiles,KCNQ2 block,KCNQ2 block baseline
COc1ccc(-c2c(-c3ccc4c(c3)OCO4)noc2C)cn1,i,3.32
O=C(CN1CCN(c2ccccn2)CC1)N1CCc2ccccc21,i,0.01
O=C(NC(Cc1c[nH]c2ccccc12)C(=O)O)/C(=C\c1ccccc1)NC(=O)c1ccccc1 (configuration not stated),i,-2.77
O=C(CCN1C(=O)S/C(=C\c2ccccc2)C1=O)N1CCOCC1,i,0.58
CC(NC(=O)C(C)N1c2cccc3cccc(c23)S1(=O)=O)c1ccccc1 (configuration not stated),i,1
COc1ccccc1-n1c(SCC(=O)Nc2cc(C)on2)nc2c([nH]c3ccccc32)c1=O,i,-0.75
O=C(NCCCN1CCCC1=O)c1ccc(S(=O)(=O)Nc2ccccc2F)cc1,i,-0.15
C[C@H](NC(=O)c1nc[nH]c1C(=O)N[C@@H](Cc1ccccc1)C(=O)OC(C)(C)C)C(=O)OCc1ccccc1,i,-0.76

Carrying on.
canonical_smiles,KCNQ2 block,KCNQ2 block baseline
Cc1ccccc1Cn1c(=N)n(CC(=O)c2ccco2)c2ccccc21,i,-0.87
CC[C@@H](C)[C@H](CNC)NC[C@@H](Cc1cccc2ccccc12)NCCc1cccc(C(F)(F)F)c1,-8.48*,3.26*
O=C(/C=C/Nc1ccc(F)c(F)c1)c1ccc(Br)cc1,i,0.62
Cc1ccc(CS(=O)Cc2ccc(C(=O)N3CCN(c4ccc(F)cc4)CC3)o2)cc1 (configuration not stated),i,0.36
CCOc1ccc(C(=O)C(C)OC(=O)C2CCN(c3ccc(C(F)(F)F)cn3)CC2)cc1 (configuration not stated),i,-1.78
CCOc1c(C)cnc2c1c(=O)n(Cc1cccc(Cl)c1)c(=O)n2C,i,-0.2
CC(C)N=C(NS(=O)(=O)c1ccc(Br)cc1)c1ccc(Cl)cc1,i,-0.9
N#Cc1cc2c(nc1SCC(=O)Nc1nccs1)CCCCC2,i,-1.81

(more compounds)
canonical_smiles,KCNQ2 block,KCNQ2 block baseline
CCN(CC(=O)Nc1ccccc1OC)C(=O)Cn1cnc2ccccc2c1=O,i,-0.65
CN(C)S(=O)(=O)c1ccc(C(=O)Nc2nnc(SCC(=O)NCC3CCCO3)s2)cc1 (configuration not stated),i,-2.44
COc1ccc(CCNC(=O)CSc2nc3[nH]ncc3c(=O)n2-c2ccccc2Br)cc1OC,i,2.2
O=C(CSc1nnc(CNc2cccc(Cl)c2)o1)OC1CCCCC1,i,2.52
CCN(CC)C(=O)c1ccc(/C=C/c2c[nH]c3ccccc23)[n+](C)c1,i,21.6
CC(C(=O)Nc1ccccc1C(F)(F)F)N1CCN(C)CC1 (configuration not stated),i,-0.2
Cc1cc(NCc2ccco2)nc2cc(O)ccc12,i,1.46
O=C(O)c1ccc(-n2c(/C=C/c3ccccc3)nc3ccccc3c2=O)cc1,i,1.37

(next part)
canonical_smiles,KCNQ2 block,KCNQ2 block baseline
COc1ccc(C(=O)N/C(=C\c2ccccc2)C(=O)NCc2cccnc2)cc1,i,-0.3
COC(=O)c1[nH]c2ccccc2c1NS(=O)(=O)c1ccc(OC)cc1OC,i,2.17
COc1ccccc1NC(=O)c1ccc(CSc2ccccc2)o1,i,1.27
CCOC(=O)C(=O)Nc1ncc(Cl)s1,i,3.4
CCCCCCCN(C(=O)CCl)c1ccccc1C,i,-0.06
Cc1ccnc(NCn2nnc3ccccc32)c1,i,-0.72
CCn1ncc(Br)c1C(=O)Nc1ccccc1C(=O)OC,i,0.03
COc1ccc(Br)c(C(=O)NNC(=O)c2ccc(NS(=O)(=O)c3cccs3)cc2)c1,i,-0.74

(more compounds)
canonical_smiles,KCNQ2 block,KCNQ2 block baseline
CCNC(=O)COC(=O)CCC(=O)c1cccs1,i,0.2
CS(=O)(=O)c1nc(S(=O)(=O)c2ccc(Cl)cc2)c(N2CCOCC2)s1,i,-0.75
CCCOc1ccc(-c2c(C(=O)N/N=C(\C)c3cccs3)nnn2-c2nonc2N)cc1,i,1.06
CCc1nc2ccccc2c(=O)n1NC(=O)c1c(O)c2ccccc2n(CC)c1=O,i,0.85
C=CCNC(=S)N1CCN(C2CCCCC2)CC1,i,-0.05
CCc1ccc(-n2cccc2/C=C2/C(=N)N3C(=NC2=O)SN=C3S(C)(=O)=O)cc1,-10.4*,0.75*
Cc1cc(C)n(-c2nc(NCC3CCCO3)c3c4c(sc3n2)COC(C)(C)C4)n1 (configuration not stated),i,0.67
O=C(NC1CCCCCCC1)c1ccccc1-c1ccccc1,i,1.26

The listing continues.
canonical_smiles,KCNQ2 block,KCNQ2 block baseline
NC(=O)C1CCN(c2ccc([N+](=O)[O-])cc2Cl)CC1,i,-0.91
O=C(CCCC(=O)Nc1cccc(Br)c1)N/N=C/c1cc([N+](=O)[O-])ccc1O,i,-0.01
Cc1nc2c(-c3ccccc3)c(C)nn2c(N)c1-c1ccccc1,-7.46*,0.33*
N#Cc1ccccc1CSc1nc(N)cc(N)n1,i,0.05
Cc1ccc(N(c2ncnc(N)c2[N+](=O)[O-])C2CCCCC2)cc1,i,2.52
Cn1sc(=O)c2cc(S(=O)(=O)NC3CC3)ccc21,i,-2.37
COc1cccc(CNC(=O)CSc2nc(=O)n(Cc3ccncc3)c3c2CCC3)c1,i,1.95
CC1(C)CC(NC(=O)c2sc3cc(Cl)ccc3c2Cl)CC(C)(C)N1,i,-0.79

Next compounds follow:
canonical_smiles,KCNQ2 block,KCNQ2 block baseline
Cc1nn(-c2ccccc2)c(Cl)c1/C=N/Nc1nnc(C)c(=O)[nH]1,i,0.09
COc1ccc(CC(=O)OCC(=O)Nc2ccc(Cl)c(S(=O)(=O)N(C)C)c2)cc1,i,1.79
Cn1c(=O)n(C)c2cc3[nH]cnc3cc21,i,-0.07
COc1ccc(CCNC(=O)COc2cc(O)c3c(c2)OC(C)(C)CC3=O)cc1,i,-1.94
COC(=O)c1ccc(C(=S)N2CCCCC2)cc1,i,-0.05
Cc1nc2c(Cl)c(C)nn2c2c1CCC2,i,-0.2
C=CCNC(=O)c1ccccc1NC(=O)c1ccccc1SC,i,0.14
O=C(CSc1n[nH]c(-c2ccccc2)n1)NC1CCCCC1,i,-0.51

More entries:
canonical_smiles,KCNQ2 block,KCNQ2 block baseline
Nc1c(C(=O)NCc2ccco2)sc2nc(N3CCOCC3)c3c(c12)CCCC3,i,0.01
CCOC(=O)C(=CNc1ccc(Oc2cccnc2)nc1)C(=O)OCC,i,2.03
COc1cc(/C=N/NS(=O)(=O)c2ccc3ccccc3c2)ccc1OCCN1CCOCC1,i,0.36
CC(=O)Nc1nc(=S)ss1,i,0.25
C/C(=N\Nc1nccnc1Cl)c1ccc(Cl)c(Cl)c1,i,0.96
COc1cc(/C=C(/C#N)c2ccccc2)ccc1Oc1ccc([N+](=O)[O-])cn1,i,0.22
O=C(CN1C(=O)COc2ccccc21)N1CCc2ccccc21,i,0.35
COc1ccc(N(C(=O)c2snc(C(N)=O)c2N)C(C(=O)NCc2ccccc2)c2ccc(O)cc2)cc1OC (configuration not stated),i,0.77

Further compounds follow.
canonical_smiles,KCNQ2 block,KCNQ2 block baseline
COc1ccc(-c2nn(-c3ccccc3)cc2/C=N/N=C(N)N)cc1OC,i,-0.8
Fc1ccccc1COc1ccc(Br)cc1CNCc1ccncc1,i,-1.06
C=CCOC(=O)C1=C[C@@H](c2cn(C(C)=O)c3ccccc23)C[C@@H](OCCCCO)O1,i,0.71
COc1cccc(C2=CC(=O)CC(c3ccco3)C2)c1 (configuration not stated),i,-0.02
CCOC(=O)c1cnc2ccc(OC)cc2c1NCCc1ccc(OC)c(OC)c1,i,-2.19
COc1ccccc1CNC(=O)COC(=O)CCN=C1NS(=O)(=O)c2ccccc21,i,1.06
COC(=O)c1sccc1-n1cc(C#N)c(=O)n(C)c1=O,i,1.12
CCCCNC(=O)[C@H](Cc1c[nH]c2ccccc12)NC(=O)c1ccccc1Cl,i,0.15

Carrying on:
canonical_smiles,KCNQ2 block,KCNQ2 block baseline
Cn1cc(CN2C[C@]3(C)C[C@H]2CC(C)(C)C3)c(-c2ccc3c(c2)OCCO3)n1,i,-0.69
COc1cc(-c2nnc(COC(=O)CSc3cc(C)c4ccccc4n3)o2)cc(OC)c1OC,i,-3.28
COc1cc(NC(=O)c2cc3cccc(OC)c3o2)cc(C(=O)Nc2cccc(C(F)(F)F)c2)c1,-7.64*,-0.02*
COCCn1c(-c2ccco2)nc2nc3ccccc3nc21,i,-0.41
Cc1ccccc1OCc1nnc(SCC(=O)N2c3ccccc3Sc3ccc(Cl)cc32)o1,-7.73*,-0.97*
O=C(Cc1ccc(Cl)cc1Cl)NCc1cccnc1,i,-0.91
O=C(CC(Nc1cccc(Cl)c1Cl)C(=O)OCC(=O)c1cccs1)c1ccccc1 (configuration not stated),i,-0.04
CCCCC[C@H](O)/C=C/[C@H]1CCC(=O)[C@@H]1CCCCCCC(=O)N1CCCCC1CO (some centres not stated),i,-1.35

New compounds follow
canonical_smiles,KCNQ2 block,KCNQ2 block baseline
CCNC(=S)N/N=C(\C)c1cccc(C(F)(F)F)c1,i,1.98
COc1ccc(OCc2nnc3n2N=C(c2ccc(Br)cc2)CS3)cc1,i,-1.12
Cc1c(C)n(Cc2ccccc2)c2ncnc(NN)c12,i,0.95
COCC(=O)N(Cc1ccco1)c1nnc(C2CCOC2)s1 (configuration not stated),i,0.19
Nc1nc2ccc(C(=O)N3CCCCC3)cc2s1,i,3.36
Cc1ncc(CN2CCCC(C(=O)Nc3ccc(-c4cccc(F)c4)cc3)C2)n1C (configuration not stated),-5.67*,0.88*
COc1ccccc1N(C)S(=O)(=O)c1ccc(C(=O)NCC(C)C)cc1,i,-0.09
CNC(=S)N/N=C(\C)c1ccc(C(C)(C)C)cc1,i,-0.2

The list goes on.
canonical_smiles,KCNQ2 block,KCNQ2 block baseline
O=C(CCc1ccccc1)NC(=S)Nc1ccccc1Br,i,-0.58
O=C(NNc1ncnc2c1cnn2-c1cccc(Cl)c1)c1ccco1,i,-2.56
CC1Cc2ccccc2N1C(=O)c1cnc2ccccn2c1=O (configuration not stated),i,2.2
O=C(CN(CC1CCCO1)C(=O)CCC(=O)Nc1nccs1)NCc1ccccc1 (configuration not stated),i,2.11
COCCn1c(C)cc(C(=O)COC(=O)c2cc3c(s2)CCC3)c1C,i,0.31
CCC(NC(=O)N(Cc1ccccc1)Cc1ccc2c(c1)OCO2)(C(F)(F)F)C(F)(F)F,-8.11*,-1.1*
O=C(CSc1ccc(Cl)cc1)NN=C1CCCCCC1,i,-1.91
COc1cccc(NC(=O)C(=O)NCC(c2ccco2)N2CCc3ccccc3C2)c1 (configuration not stated),i,-1.12

Remaining list, next part
canonical_smiles,KCNQ2 block,KCNQ2 block baseline
CC(NCc1ccc(S(N)(=O)=O)cc1)C(=O)N1c2ccccc2CC1C (configuration not stated),i,0.41
COC(=O)Cc1ccc(NC(=S)N2CCN(C)CC2)cc1,i,0.65
CCn1c2ccccc2c2cc(CN3CCN(Cc4cc(OC)ccc4O)CC3)ccc21,i,0.01
COC(=O)c1cc2ccccc2oc1=O,i,-0.88
C[C@@]12CCC=C[C@H]1[C@H](c1ccc(C(F)(F)F)cc1)N(Cc1ccccc1)C2=O,i,-0.41
OCCN(CC#CC(O)(c1ccccc1)c1ccccc1)CCO,i,-1.4
Cc1ccc(C(=O)NNC(=O)CSc2nnc(CNc3ccc(F)cc3)n2C)cc1,i,0.15
Cc1cc2cc(CN(Cc3cccs3)Cc3nnnn3CC3CCCO3)c(=O)[nH]c2cc1C (configuration not stated),i,-1.08

The closing two compounds of the section before open the next one:
canonical_smiles,KCNQ2 block,KCNQ2 block baseline
Cc1ccc(C(=O)NNC(=O)CSc2nnc(CNc3ccc(F)cc3)n2C)cc1,i,0.15
Cc1cc2cc(CN(Cc3cccs3)Cc3nnnn3CC3CCCO3)c(=O)[nH]c2cc1C (configuration not stated),i,-1.08
O=C1Nc2ccc(Br)cc2C1=C1CCCCC1,i,0.54
Cc1cc(C)cc(-n2c(C)cc(/C=N\NC(=O)COc3cccc4cccnc34)c2C)c1,i,1.13
OCC1(Cc2cccc(Cl)c2)CCCN(Cc2cnn(-c3ccccc3)c2)C1 (configuration not stated),i,-0.45
COc1nc(N/N=C/c2ccc(-c3ccccc3[N+](=O)[O-])o2)nc(N2CCOCC2)n1,i,-1.74
COc1ccc(/C=N/NC(=O)c2ccc(=O)[nH]n2)cc1OC,i,0.94
Cc1cccc(C)c1OCC(=O)N(Cc1ccc(Cl)cc1)C1CCS(=O)(=O)C1 (configuration not stated),i,1.84
COC(=O)c1ccccc1NC(=O)CSc1ncn[nH]1,i,1.75
C/C(=C\C(=O)c1ccc(Cl)cc1)NCc1ccc2c(c1)OCO2,i,-0.61

Single records, as listed above. Screens in order: KCNQ2 block, KCNQ2 block baseline
Results for OCC1(Cc2cccc(Cl)c2)CCCN(Cc2cnn(-c3ccccc3)c2)C1 (configuration not stated) : i, -0.45
Results for Cc1cc(C)cc(-n2c(C)cc(/C=N\NC(=O)COc3cccc4cccnc34)c2C)c1 : i, 1.13
Results for C/C(=C\C(=O)c1ccc(Cl)cc1)NCc1ccc2c(c1)OCO2 : i, -0.61
Results for COc1ccc(/C=N/NC(=O)c2ccc(=O)[nH]n2)cc1OC : i, 0.94
Results for COc1nc(N/N=C/c2ccc(-c3ccccc3[N+](=O)[O-])o2)nc(N2CCOCC2)n1 : i, -1.74

More records
canonical_smiles,KCNQ2 block,KCNQ2 block baseline
c1ccc(-c2nnc(SCC3CCCO3)nc2-c2ccccc2)cc1 (configuration not stated),i,-0.55
Cc1cc(C)nc(NC2=NCCN2C(=S)Nc2c(C)cccc2C)n1,i,-1.28
C=CCn1c(SCc2c(C(=O)OC)sc(N)c2C(=O)OC)nnc1-c1ccc(Br)cc1,i,0.3
CCOC(=O)C1(C)NC(c2cccc(C)c2)C2C(=O)N(c3ccccc3)C(=O)C21 (configuration not stated),i,-0.4
O=c1oc2c(CN3CCN(CCO)CC3)c(O)ccc2cc1-c1ccccn1,i,4.61
CC(C)COc1cccc(C(=O)Nc2ccc(S(=O)(=O)N3CCOCC3)cc2)c1,i,2.37
Cc1nn(-c2ccccc2)c2c1C1(C(=O)N3c4c(cccc41)C(C)CC3(C)C)C(C#N)=C(N)O2 (configuration not stated),i,0.54

Screens deposited in PubChem BioAssay by Johns Hopkins Ion Channel Center.
